Screening data as filed in PubChem BioAssay.
gsp ag = activates gsp, the McCune-Albright syndrome mutation; Potency, µM (series often up to 76.9 µM), without a hit: at the highest dose activation (cAMP increase), actives largely listed as activators; AID 624287; 340,000 tested, 0.13% active; gsp mutant cells, cAMP HTRF, 30 min; control for the full effect not named in the record; active = well fitted activation curve with a large enough effect; inconclusive = small, poorly fitted or top-dose-only effect, or another doubt; inactive = no such curve, though single readings can be large or run the other way; cell line not stated here;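 further: phosphodiesterase inhibitor Ro 20-1724 added with compounds to block cAMP breakdown; potency means the concentration at half of the fitted maximal effect; nearly all actives have a fitted effect of over 60% in size; about a fifth of the inactives were tested at one dose only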
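Cells in DMEM/10% FBS with G418 were pretreated with compounds in DMSO plus […] (300 uM stock) for 30 min at 37C. cAMP was measured by HTRF (cAMP-d2 plus anti-cAMP antibody-K) after 30 min at room temperature.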
Sfp PPTase inh = blocks B. subtilis Sfp PPTase activity | AID 1490 | Q9F4F7 | Biochemical Sfp PPTase activity, qHTS | Potency, µM, inactives show max response, negative = inhibition, actives largely listed as inhibitors | 310,000 tested, 3.5% active; active means well fitted inhibition curve with a large enough effect; inconclusive means small, poorly fitted or top-dose-only effect, or another doubt; inactive means no such curve, though single readings can be large or run the other way;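 further: the enzyme is Sfp with the accession as filed and its product quenches rhodamine fluorescence; potency means the concentration at half of the fitted maximal effect; 0% = enzyme reaction without inhibitor and -100% = no enzyme wells; top concentration of the series not given in the record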
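After 15 min at room temperature with compound, 15 nM Sfp received 5 uM rhodamine-CoA plus 12.5 uM BHQ-2-ybbR (50 mM Hepes pH 7.6, 10 mM MgCl2). Rate came from the fluorescence difference over 30 min, ex 525/em 598 nm.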
TRPV1 potentiator = human TRPV1 potentiation; Q8NER1; 320,000 tested, 0.02% active; TRPV1-expressing cells, Fluo-8 calcium influx, capsaicin EC20 potentiation; host cell line not named in the record; control for the full effect not named in the record; AID 540277; potentiation, % at 8.33 µM; active means potentiation above 80%; inconclusive means 30% to 80%; inactive means below 30%; further: 0% is about no effect
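Cells expressing TRPV1 were dye-loaded with Fluo-8 and read kinetically: 10 s baseline, 3 min after compound (agonist portion), then 2 min after EC20 capsaicin (allosteric enhancer portion). Calcium-bound dye fluorescence at 480/520 nm.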
Menin-MLL FL inh = menin-MLL binding inhibition, fluorescein peptide. FP activity change, % at 61.4 µM. Fluorescence polarization, fluorescein-MLL peptide displacement from menin. 290,000 tested, under 10 active. AID 1766; inconclusive = falling polarisation curve, or a change in total fluorescence; inactive = total fluorescence flat and polarisation flat or rising; no compound was filed as active; the % refers to the polarisation; negative = inhibition;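 further: % of control where 0% means no effect; inhibitors lower the polarisation; unlabelled MLL peptide was the positive control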
gsp antagonist = antagonists of gsp mutant (McCune-Albright syndrome); AID 624288; Potency, µM (doses to about 76.9 µM), without a hit: top-dose activity change, negative = inhibition, usual class: inhibitors; gsp-mutant cells, cAMP HTRF, 30 min; control for the full effect not named in the record; 340,000 tested, 0.4% active; active = falling curve of any shape with a large fitted effect; inconclusive = falling curve, mostly with a smaller effect; inactive = flat or rising curve; cell line not stated here;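 further: intracellular cAMP measured with PDE inhibitor Ro 20-1724 present during compound exposure; potency means the concentration at half of the fitted maximal effect; on the % scale 0 is the no-effect control and ±100 the full control effect; nearly all actives have a fitted effect of over 65% in size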
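Cells, 2000/well, grown 16–24 h in DMEM 10% FBS with 0.5 mg/ml G418, then compounds plus […] (300 uM addition stock), 30 min at 37C. cAMP read by HTRF (cAMP-d2 and anti-cAMP antibody-K in lysis buffer) after 30 min RT.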
ClpP mod = qHTS Assay for Activators of ClpP | ATP-dependent Clp protease proteolytic subunit (Bacillus subtilis (strain 168)), P80244 | purified B. subtilis ClpP, FRET peptide cleavage, 20 min | Potency, µM (doses to about 57.5 µM), for the others: top-dose activity change, negative = active | 340,000 tested, 1.9% active | AID 651965, 2013; active = well fitted falling curve with a large enough effect; inconclusive = small, poorly fitted or top-dose-only effect; inactive = no such curve, though single readings can be large or run the other way; further: potency means the concentration at half of the fitted maximal effect; the source files actives as falling curves though it sought activators and does not explain the sign; nearly all actives have a fitted effect of over 65% in size; many hits overshoot -100%
Target sequence (P80244 whole entry, looked up): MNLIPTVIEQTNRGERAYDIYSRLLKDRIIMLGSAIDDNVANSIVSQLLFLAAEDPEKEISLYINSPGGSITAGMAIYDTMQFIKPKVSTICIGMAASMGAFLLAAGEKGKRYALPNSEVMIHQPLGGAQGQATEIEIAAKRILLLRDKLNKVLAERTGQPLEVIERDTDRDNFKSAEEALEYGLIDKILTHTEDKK
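Buffer: 100 mM Tris/HCl pH8, 100 mM KCl, 0.05% low protease BSA, 2.5% glycerol, 0.01% Tween-20. ClpP 10 microg/mL final; 20 min RT; delta FRET normalized to ADEP and DMSO controls.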
TRPML1 inh = inhibitors of human TRPML1 channel; 390,000 tested, 0.02% active; Q9GZU1; activity change, negative = inhibition, % (concentration not given with the values); TRPML1-inducible cells, Ca2+ dye fluorescence, FDSS; stronger effect = lower value; inhibition of EC80 agonist-evoked calcium signal; in the data active means activity change below about -50%; inconclusive means about -30% to -50%; inactive means above about -30%;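 further: stimulus is agonist 54-4 at its EC80 concentration; on the % scale 0 is the no-effect control and ±100 the full control effect; compound concentration not given in the record; the text of the record puts the active cut at -80%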
Target sequence (Q9GZU1 whole entry, looked up): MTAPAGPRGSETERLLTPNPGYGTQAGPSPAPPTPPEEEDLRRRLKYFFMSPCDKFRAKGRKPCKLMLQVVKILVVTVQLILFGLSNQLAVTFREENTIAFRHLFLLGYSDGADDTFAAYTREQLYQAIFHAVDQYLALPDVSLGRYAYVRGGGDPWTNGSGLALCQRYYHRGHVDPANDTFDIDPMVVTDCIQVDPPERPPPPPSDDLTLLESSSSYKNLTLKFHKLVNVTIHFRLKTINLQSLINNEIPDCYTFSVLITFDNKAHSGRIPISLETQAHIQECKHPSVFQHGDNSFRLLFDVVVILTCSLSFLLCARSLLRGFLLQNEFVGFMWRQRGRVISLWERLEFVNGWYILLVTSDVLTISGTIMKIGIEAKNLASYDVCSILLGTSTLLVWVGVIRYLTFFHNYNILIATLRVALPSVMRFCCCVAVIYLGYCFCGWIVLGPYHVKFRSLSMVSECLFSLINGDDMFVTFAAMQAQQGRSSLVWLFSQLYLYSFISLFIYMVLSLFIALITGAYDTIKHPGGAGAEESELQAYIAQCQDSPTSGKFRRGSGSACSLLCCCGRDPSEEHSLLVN
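Tet-induced TRPML1-DL cells loaded with Ca8 no-wash calcium dye were read kinetically on FDSS. Compound addition was followed by EC80 agonist 54-4 (4 uM final); inhibition was read over 110 s.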
* marks the source's active call; other numbers are inactive results; ? = inconclusive; · = no result given; & = joins results of further samples; [ ] = another dose, or the depositor's remark.

SMILES	gsp ag	Sfp PPTase inh	TRPV1 potentiator	Menin-MLL FL inh	gsp antagonist	ClpP mod	TRPML1 inh
CCOC(=O)C1CCCN(C(=O)COC(=O)c2cc(=O)c3ccccc3o2)C1 (stereo not drawn)	?	14.4%	2.0	4.5	-7.8%	2.4%	12.7
CC(C)NC(=O)CCn1ccc2cc(S(=O)(=O)N3CCCC3)ccc21	11.0%	1.3%	7.0	0.9	3.6%	-0.2%	-13.3
CCCC1(C)Nc2ccccc2-c2nc3ccccc3n21 (stereo not drawn)	21.0%	-1.1%	5.7	2.7	6.4%	?	4.4
CCOC(=O)c1[nH]cnc1C(=O)Nc1ccncc1	?	-5.8%	0.5	-2.0	8.4%	-2.1%	8.1
COc1ccccc1NC(=O)C1CCCN(S(=O)(=O)c2ccc3c(c2)CC(C)N3C(C)=O)C1 (stereo not drawn)	-64.8%[inhibitor]	19.6%	13.2	·	-30.0%	-2.0%	12.4
Cc1ccc(CC(=O)NC2CCN(C)CC2)cc1	35.3%	18.7%	-3.3	-4.7	0.6%	·	-3.3
COc1ccc(CC(=O)Nc2nc3ccccc3[nH]2)cc1	-17.9%	14.0%	1.0	-2.5	-1.8%	0.8%	-10.8
O=c1oc(Nc2ccccc2Cl)nc2ccccc12	-55.0%[inhibitor]	9.1%	-7.2	2.9	30.7%	5.6%	-13.5
COc1ccc(NC(=O)/C=C/c2cc(OC)c(OC)c(OC)c2)cn1	-1.4%[15.4 µM]	14.7%	-2.3	-6.3	13.5%	·	-3.6
Cc1cccc(C(=O)OC2CCOC2=O)c1C (stereo not drawn)	-18.2%	13.8%	23.2	-2.0	4.2%	·	-12.2
O=C1Nc2ccc([N+](=O)[O-])cc2OC1CCN1CCN(Cc2ccccc2)CC1 (stereo not drawn)	?	10.2%	-1.7	11.0	-4.3%	·	2.9
CCCCCCCCNC(=O)C(CCC(=O)OCc1ccccc1)NC(C)=O (stereo not drawn)	-24.3%	11.3%	0.7	4.8	3.4%	0.8%	-7.2
CC(C)=CC[N+]1(C)CCCCC1	-48.1%	18.8%	13.4	1.3	7.7%	1.6%	4.0
O=C(/C=C\c1cccs1)c1c(O)ccc2ccc(=O)oc12	-8.8%	-21.5%	-5.1	2.1	4.1%	-2.4%	5.9
O=C(CSc1nc(-c2cccs2)cc(C(F)(F)F)n1)Nc1cc(OCC(F)(F)C(F)F)cc([N+](=O)[O-])c1	-25.8%	?	-8.6	2.0	-13.5%	1.4%	35.8
C=CCNC(=O)CN1N=C(c2ccc(C)cc2)CCC1=O	-2.5%[15.4 µM]	6.9%	28.5	-0.4	9.6%	0.9%	16.8
Cc1c(C(=O)Nc2cccnc2)oc2ccc(Br)cc12	-11.1%[15.4 µM]	5.5%	8.9	-1.6	6.1%	-3.6%	-5.9
O=C(/C=C/c1ccco1)NC(=S)Nc1nc(-c2ccc(Cl)cc2)cs1	-1.3%	-10.5%	-3.9	13.4	8.3%	2.0%	17.5
Oc1ccccc1-c1nnc(SCCN2CCOCC2)n1Cc1ccccc1	1.2%	5.9%	-14.2	1.6	3.6%	2.3%	15.8
Cn1cnnc1SCC(=O)NC(=O)NCc1ccccc1	-43.1%[inhibitor]	·	-5.6	·	11.8%	-1.5%	-11.3
COC(C[C@@H]1O[C@H]1[C@@H](O)COCc1ccccc1)OC	·	17.9%	?	6.5	4.0%	0.8%	-3.1
COc1cc2cc(C(=O)Nc3ccccc3)c(N)nc2cc1OC	12.6%	?	-1.8	4.2	-2.6%	?	-15.6
COc1ccc2cc(C#N)c(N3CCN(C(=O)c4ccccc4C)CC3)nc2c1	-22.3%	-9.8%	28.4	0.6	39.8µM*	·	76.6
O=C(Cc1ccccc1Cl)Nc1ccc(S(=O)(=O)Nc2nccs2)cc1	?	7.8%	4.5	-0.6	-8.0%	-1.3%	-22.2
Cc1cc(C(=O)Nc2ncn(Cc3ccc(F)cc3)n2)ccc1[N+](=O)[O-]	7.4%	6.6%	-5.6	-1.3	-1.3%	1.3%	·
CSc1ncc(OCc2ccccc2)c(=O)[nH]1	-1.8%	-3.7%	-3.1	-4.5	0.6%	-4.3%	-16.6
Cc1ccccc1C(=O)N1CCC(C(=O)Nc2cccc(S(=O)(=O)N3CCCCC3)c2)CC1	16.5%	·	2.0	·	?	1.6%	15.2
COC(=O)c1ccc(NC(=S)N2CCN(Cc3ccccc3OC)CC2)cc1	3.5%	12.8%	6.4	-1.1	-22.4%	0.8%	-1.4
CCCCC(=O)OCC(=O)Nc1ccc(SC(F)F)cc1	-37.6%[inhibitor]	6.0%	-23.0	3.9	9.1%	0.6%	-2.1
O=C(CSc1nc2nn(-c3ccccc3)c(=O)c-2c2n1CCCCC2)c1ccc(OC(F)F)cc1	-58.6%[inhibitor]	·	·	·	-23.1%	-1.4%	28.6
OC(COCc1cccs1)CN1CCN(c2ccccn2)CC1 (stereo not drawn)	?	10.6%	3.6	0.6	-1.8%	-9.5%	0.4
Cc1cc(C)cc(NC(=O)CSc2nnc(C3CC3)n2CC2CCCO2)c1 (stereo not drawn)	-11.2%[15.4 µM]	1.4%	3.2	2.7	9.2%	-0.2%	-8.7
O=C(Nc1ccccn1)c1sc2cc([N+](=O)[O-])ccc2c1Cl	3.8%	6.31µM*	?	-0.5	-14.1%	-2.2%	27.9
O=C(CCS(=O)(=O)c1ccc(F)cc1)N1CCOCC1	16.8%[15.4 µM]	20.4%	1.0	-4.1	-15.4%	·	-3.8
Cc1ccccc1OCC(=O)Nc1ccc2c(c1)n(C)c(=O)n2C	-28.0%	8.3%	-6.1	-2.7	-14.4%	·	16.9
CC(C)Oc1ccc(C(=O)NC2(C(F)(F)F)N=C3SCCN3C2=O)cc1 (stereo not drawn)	8.5%	6.0%	-1.1	1.3	-3.9%	-0.4%	15.2
O=C(/C=C/c1cccc([N+](=O)[O-])c1)Nc1ccccc1N1CCOCC1	-3.6%	-7.2%	-8.1	3.9	-7.3%	-1.0%	-6.6
O=C(NC1(C(F)(F)F)N=C(c2ccccc2)NC1=O)c1ccc(Cl)cc1Cl (stereo not drawn)	?	17.6%	4.7	2.9	4.3%	-19.3%	21.1
COCCN=c1scc(C)n1/N=C/C1CC2C=CC1C2 (stereo not drawn)	-2.7%[15.4 µM]	-7.3%	-12.4	3.0	-21.0%	·	7.5
COc1cccc(C2CC(c3ccccc3Cl)Nc3nc(N)nn32)c1 (stereo not drawn)	-1.0%	-2.8%	-6.5	-0.6	0.8%	-2.6%	34.1
Cc1nn(C)cc1C1C2=C(CC(C)(C)CC2=O)OC2=C1C(=O)CC(C)(C)C2	?	11.2%	-2.8	-1.0	-8.6%	-1.2%	-1.7
Cc1[nH]c2ccccc2c1C(=O)COC(=O)Cn1cnc2ccccc21	6.2%[15.4 µM]	10.5%	-2.5	4.4	2.4%	·	9.2
COCCn1c(=NC(=O)c2ccc(S(=O)(=O)N3CCc4ccccc4C3)cc2)sc2cc(OC)ccc21	27.0%	10.1%	-4.5	0.9	17.2%	-8.4%	-1.0
COc1ccc(N(C)S(=O)(=O)c2cccc(C(=O)Nc3ccc(N4CCOCC4)cc3)c2)cc1	-8.9%	·	-3.1	·	?	4.2%	-2.2
COc1ccc(C(=O)Nn2c(SCC(=O)c3ccccc3)nc3ccccc3c2=O)cc1	-44.9%[inhibitor]	-9.9%	-8.2	-2.0	3.0%	-6.6%	19.8

Random excerpt: 2 compounds from above, in no set order.
SMILES	gsp ag	Sfp PPTase inh	TRPV1 potentiator	Menin-MLL FL inh	gsp antagonist	ClpP mod	TRPML1 inh
Cc1[nH]c2ccccc2c1C(=O)COC(=O)Cn1cnc2ccccc21	6.2%[15.4 µM]	10.5%	-2.5	4.4	2.4%	·	9.2
O=C(/C=C/c1cccc([N+](=O)[O-])c1)Nc1ccccc1N1CCOCC1	-3.6%	-7.2%	-8.1	3.9	-7.3%	-1.0%	-6.6

Additional structures
SMILES	gsp ag	Sfp PPTase inh	TRPV1 potentiator	Menin-MLL FL inh	gsp antagonist	ClpP mod	TRPML1 inh
COCCn1c(SCC(N)=O)nc2c(c1=O)SC(C)C2 (stereo not drawn)	-57.0%[inhibitor]	7.9%	-3.8	1.9	-1.4%	-0.1%	-3.4
Cc1cc(Nc2ccc(Br)c(C)c2)n2nc(C)nc2n1	5.6%	2.8%	-8.7	3.1	4.2%	-2.8%	-8.9
O=C1CC(C(=O)Nc2ccc(Br)cc2)S/C(=N\N=C\c2ccco2)N1 (stereo not drawn)	-2.2%[15.4 µM]	-13.9%	15.2	7.6	-4.7%	1.0%	-2.8
Cc1ccc(Oc2cc(NN3CCCCC3)c([N+](=O)[O-])cc2[N+](=O)[O-])c(Cl)c1	-2.2%	7.0%	6.4	1.7	-8.4%	0.2%	-2.2
CC(=O)Nc1ccc(OCC(O)CN2CCN(c3cc(Cl)ccc3C)CC2)cc1 (stereo not drawn)	-6.1%	-1.0%	-8.1	4.4	-5.6%	-3.2%	-7.4
Cc1ccc(-n2nnnc2-c2cnc3ccc(Cl)cc3c2-c2ccccc2)cc1	-21.6%	-11.4%	·	-0.7	13.8%	-5.6%	9.1
O=C(c1ccco1)N1CCN(Cc2cc(=O)c(OCc3ccc(F)cc3)co2)CC1	-16.2%[15.4 µM]	·	-11.2	·	-0.6%	·	10.6
CNC(=O)c1ccccc1NC(=O)C1CC(=O)N(c2ccc(OC)cc2)C1 (stereo not drawn)	-20.2%	-22.1%	9.3	0.5	4.8%	0.7%	-2.2
Cc1ccccc1-n1nc2c(c1NC(=O)c1ccc3c(c1)OCO3)CS(=O)(=O)C2	-11.8%	3.3%	-10.5	-0.5	5.4%	-3.5%	-14.7
CCOc1ccc(NC(=O)c2ccc3c(=O)n4c(nc3c2)CCCCC4)cc1	-1.4%	4.6%	5.0	·	5.7%	-0.9%&3.2%	-1.2&5.4
COc1cc(/C=N/NC(=O)CC2(C)OCCO2)cc(Br)c1O	-9.7%	-3.7%	25.7	-4.6	-23.0%	4.2%	43.8
CC(C)CCOP(=O)(c1ccc(N(C)C)cc1)C(O)c1ccccc1F (stereo not drawn)	-129.7%[inhibitor]	-6.1%	25.0	-1.3	6.3%	-0.1%	-1.7
